# High-throughput results (PubChem BioAssay)
# Yeast UUG start = modulators of yeast start codon fidelity, primary screen, whole organism, S. cerevisiae, single point, plate reader; S. cerevisiae UUG-firefly luciferase reporter, luminescence/redox ratio; activity score, % at 18.7 µM; actives 0.13% (n = 350,000);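 active = replicate mean at a twofold rise or more, about +100% in these data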;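 note: firefly luciferase made from a UUG start codon reports start codon fidelity; reporter light over untreated wells divided by growth signal over untreated wells; some hits fall short of that in this replicate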
# HIV Env fusion = inhibitors of HIV-1 Env-driven cell-cell fusion, primary screen, HeLa-JRFL effector, CEM21 target cells, luciferase; actives 1.1% (n = 360,000); AID 651610, 2012; inhibition, % at 12.3 µM;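 active = mean replicate inhibition score of at least 50 and every replicate individually at or above 50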;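 note: 0% = plate neutral controls and 100% = maraviroc near 300 nM; one replicate is shown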
# * hit, by the source's call; [ ] = dose if it differs, or a comment. Some of the compounds tested; rates above refer to the full screens.
compound	Yeast UUG start	HIV Env fusion
C[C@@H]1CN([C@@H](C)CO)C(=O)c2cccc(NC(=O)c3ccc(-c4nccs4)cc3)c2O[C@@H]1CN(C)CC1CCCCC1	5	-9[16.7 µM]
CC(C)C#Cc1ccc([C@H]2[C@@H](CO)N(C(=O)c3ccccn3)[C@H]2C#N)cc1	10	27[16.7 µM]
C[C@H](O)C#Cc1ccc2c(c1)O[C@H](CN(C)C(=O)C1CCCCC1)[C@@H](C)CN([C@H](C)CO)S2(=O)=O	2	-69[16.7 µM]
C[C@H](CO)N1C[C@H](C)[C@H](CN(C)C(=O)Nc2ccc(F)cc2)Oc2ccc(NS(=O)(=O)c3cccs3)cc2CC1=O	-2	6[16.7 µM]
O=C(C[C@@H]1CC[C@@H]2[C@H](COC[C@H](O)CN2S(=O)(=O)c2ccc(F)cc2)O1)NCC1CCCCC1	10	7[16.7 µM]
CCC(=O)N1C[C@@H](C)[C@H](OC)CN(C)C(=O)c2cc(NS(=O)(=O)CC)ccc2OC[C@@H]1C	-13	-16[16.7 µM]
O=C(C[C@@H]1CC[C@H]2[C@@H](COC[C@@H](O)CN2C(=O)Cc2ccccc2)O1)NC1Cc2ccccc2C1	2	7[16.7 µM]
CCCC(=O)Nc1ccc2c(c1)C(=O)N(C)C[C@@H](OC)[C@H](C)CN(C(=O)c1ccncc1)[C@H](C)CO2	-4	6[16.7 µM]
C[C@H](CO)N1C[C@H](C)[C@H](CN(C)C(=O)C2CCC2)Oc2ncc(-c3cccnc3)cc2C1=O	-13	3[16.7 µM]
C[C@@H]1CN([C@@H](C)CO)C(=O)c2cc(NC(=O)c3ccccc3)ccc2O[C@@H](C)CCCCO[C@H]1CN(C)Cc1ccncc1	-10	-12[16.7 µM]
CC(C)NC(=O)Nc1ccc2c(c1)C(=O)N([C@@H](C)CO)C[C@@H](C)[C@@H](CN(C)C(=O)C1CCCCC1)OCCCC[C@@H](C)O2	9	39[16.7 µM]
N#C[C@@H]1[C@@H](c2ccc(C#Cc3ccccc3F)cc2)[C@@H](CO)N1C(=O)C1CCC1	3	5[16.7 µM]
COc1ccc(-c2cnc3c(c2)C(=O)N([C@H](C)CO)C[C@H](C)[C@H](CN(C)C(=O)Nc2ccccc2)O3)cc1	11	-4[16.7 µM]
CCCN(C)C[C@@H]1Oc2cc(-c3cncnc3)ccc2S(=O)(=O)N([C@@H](C)CO)C[C@@H]1C	0	1[16.7 µM]
O=S(=O)(N[C@H]1CC[C@H](CCn2cc(-c3cccnc3)nn2)O[C@@H]1CO)c1ccc(Cl)cc1	0	-10[16.7 µM]

compound	Yeast UUG start	HIV Env fusion
Cc1ccc(S(=O)(=O)Nc2cccc3c2O[C@H](CN(C)S(=O)(=O)c2cccs2)[C@H](C)CN([C@H](C)CO)C3=O)cc1	4	13[16.7 µM]
CCCC#Cc1cnc2c(c1)C(=O)N([C@@H](C)CO)C[C@@H](C)[C@H](CN(C)C(=O)Nc1ccc(OC)cc1)O2	22	-12[16.7 µM]
COCC#Cc1ccc2c(c1)O[C@@H](CN(C)S(=O)(=O)c1cccc(OC)c1)[C@@H](C)CN([C@H](C)CO)S2(=O)=O	12	-4[16.7 µM]
CCC(=O)Nc1ccc2c(c1)C(=O)N(C)[C@H]1CC[C@@H](CC(=O)NCc3ccc(OC)cc3)O[C@@H]1CO2	2	14[16.7 µM]
C[C@H](CO)N1C[C@H](C)[C@H](CN(C)S(C)(=O)=O)Oc2c(NC(=O)c3nc4ccccc4s3)cccc2C1=O	5	-14[16.7 µM]
C[C@H]1CN([C@@H](C)CO)C(=O)c2cc(C#CCN(C)C)cnc2O[C@@H]1CN(C)Cc1cccc(C(=O)O)c1	3	15[16.7 µM]
CCCC#Cc1ccc2c(c1)O[C@H](CN(C)Cc1ccc3c(c1)OCO3)[C@@H](C)CN([C@@H](C)CO)S2(=O)=O	0	6[16.7 µM]
C[C@H](CO)N1C[C@H](C)[C@H](CN(C)Cc2ccc(C(=O)O)cc2)OCCCC[C@H](C)Oc2ccc(NS(=O)(=O)c3cn(C)cn3)cc2C1=O	-9	11[16.7 µM]
C[C@@H]1CN([C@H](C)CO)C(=O)Cc2cc(NC(=O)Nc3ccccc3)ccc2O[C@@H]1CN(C)Cc1ccc(Cl)c(Cl)c1	6	-49[16.7 µM]
C[C@@H]1CN([C@H](C)CO)C(=O)c2cc(NC(=O)Nc3ccc(C(F)(F)F)cc3)ccc2O[C@@H](C)CCCCO[C@@H]1CN(C)C(=O)C1CCCCC1	-15	-34[16.7 µM]
COc1ccccc1CNC(=O)C[C@H]1C[C@@H]2c3cc(NC(=O)CC4CC4)ccc3O[C@@H]2[C@H](CO)O1	0	15[16.7 µM]
COc1cccc(-c2cnc3c(c2)C(=O)N([C@H](C)CO)C[C@H](C)[C@@H](CN(C)Cc2ccc(C(=O)O)cc2)O3)c1	-4	-22[16.7 µM]
C[C@H](CO)N1C[C@H](C)[C@@H](CN(C)CC2CC2)Oc2ccc(NS(=O)(=O)c3cccs3)cc2C1=O	-11	-11[16.7 µM]
C[C@H]1CCCCO[C@@H](CN(C)C(=O)NC2CCCCC2)[C@@H](C)CN([C@@H](C)CO)C(=O)c2cc(NC(=O)NC3CCCCC3)ccc2O1	10	10[16.7 µM]
Cc1ccc(-c2ccc3c(c2)O[C@@H](CN(C)C(=O)Nc2ccc(C(F)(F)F)cc2)[C@@H](C)CN([C@H](C)CO)S3(=O)=O)cc1	-14	38[16.7 µM]

compound	Yeast UUG start	HIV Env fusion
C[C@@H]1CN([C@H](C)CO)S(=O)(=O)c2ccc(C#CC3CCCCC3)cc2O[C@H]1CN(C)C	30	17[16.7 µM]
CCCNC(=O)N(C)C[C@@H]1Oc2cc(-c3ccccc3)ccc2S(=O)(=O)N([C@H](C)CO)C[C@@H]1C	12	-6[16.7 µM]
C[C@H]1CN([C@@H](C)CO)C(=O)Cc2cc(NC(=O)NC3CCCCC3)ccc2O[C@@H]1CN(C)S(=O)(=O)c1cn(C)cn1	10	-25[16.7 µM]
COc1ccc(NC(=O)N(C)C[C@@H]2OCCCC[C@@H](C)Oc3ccc(NC(=O)CCCN(C)C)cc3C(=O)N([C@H](C)CO)C[C@H]2C)cc1	17	-35[16.7 µM]
CO[C@@H]1CN(C)C(=O)c2cc(NC(=O)Nc3cccc(F)c3)ccc2OC[C@H](C)N(C)C[C@H]1C	-2	31[16.7 µM]
O=C(C[C@H]1C[C@H]2c3cc(NC(=O)Nc4ccccc4)ccc3O[C@H]2[C@H](CO)O1)NCc1cccc(F)c1	-13	22[16.7 µM]
C[C@@H]1CN([C@@H](C)CO)S(=O)(=O)c2ccc(C#C[C@@H](C)O)cc2O[C@H]1CN(C)C(=O)Cc1ccccn1	-16	-4[16.7 µM]
C[C@@H]1CN([C@H](C)CO)C(=O)Cc2cc(N(C)C)ccc2O[C@H]1CN(C)Cc1ccc(C(F)(F)F)cc1	8	16[16.7 µM]
C[C@H](CO)N1C[C@H](C)[C@H](CN(C)C(=O)Nc2ccccc2)Oc2ncc(-c3ccc(C#N)cc3)cc2C1=O	-11	10[16.7 µM]
C[C@H](CO)N1C[C@H](C)[C@@H](CN(C)C(=O)Cc2ccccc2)OCCCC[C@H](C)Oc2ccc(NC(=O)Nc3ccc(F)cc3)cc2C1=O	10	-14[16.7 µM]
O=C(N[C@@H]1CC[C@@H](CC(=O)N2CCN(c3ccccc3)CC2)O[C@@H]1CO)c1ccncc1	-15	-14[16.7 µM]
O=C(N[C@H]1CC[C@@H](CCn2cc(-c3ccccc3)nn2)O[C@@H]1CO)c1cnccn1	7	1[16.7 µM]
C[C@@H]1CCCCO[C@H](CN(C)S(=O)(=O)c2ccc(Cl)cc2)[C@@H](C)CN([C@@H](C)CO)C(=O)c2cc(NS(=O)(=O)c3cn(C)cn3)ccc2O1	13	0[16.7 µM]
CS(=O)(=O)N1[C@@H](C#N)[C@H](c2ccc(-c3ccccc3F)cc2)[C@@H]1CO	-9	6[16.7 µM]
C[C@@H]1CCCCO[C@H](CN(C)Cc2ccncc2)[C@H](C)CN([C@@H](C)CO)C(=O)c2cc(NS(=O)(=O)c3ccccc3)ccc2O1	7	10[16.7 µM]

compound	Yeast UUG start	HIV Env fusion
O=C(C[C@H]1CC[C@H](NC(=O)C2CC2)[C@@H](CO)O1)NCc1ccccc1Cl	-2	-10[16.7 µM]
CO[C@H]1CN(C)C(=O)c2cc(NS(=O)(=O)c3ccccc3)ccc2OC[C@H](C)N(C)C[C@H]1C	1	-29[16.7 µM]
C[C@@H]1CN([C@@H](C)CO)C(=O)c2cc(NC(=O)C3CC3)ccc2O[C@H]1CN(C)C(=O)Nc1cccc2ccccc12	2	49[16.7 µM]
C[C@@H]1CCCCO[C@H](CN(C)C(=O)Nc2ccc(F)cc2)[C@H](C)CN([C@@H](C)CO)C(=O)c2cc(NS(=O)(=O)c3cn(C)cn3)ccc2O1	-1	4[16.7 µM]
C[C@@H]1CN([C@@H](C)CO)C(=O)c2cc(-c3ccc(C(=O)N(C)C)cc3)cnc2O[C@@H]1CN(C)Cc1ccc(C(=O)O)cc1	-5	-11[16.7 µM]
O=C(N[C@@H]1CC[C@@H](CCNS(=O)(=O)c2ccccc2)O[C@@H]1CO)c1cccc(F)c1	-6	-12[16.7 µM]
C[C@H](CO)N1C[C@H](C)[C@@H](CN(C)CC2CC2)Oc2ccc(NC(=O)NC3CCCCC3)cc2CC1=O	2	-18[16.7 µM]
C[C@@H]1CN([C@H](C)CO)C(=O)c2cccc(N(C)C)c2O[C@H]1CN(C)Cc1ccc(C(=O)Nc2ccccc2N)cc1	-5	6[16.7 µM]
C[C@@H]1CN([C@H](C)CO)C(=O)c2cc(NC(=O)Nc3ccc4c(c3)OCO4)ccc2O[C@@H](C)CCCCO[C@@H]1CN(C)S(=O)(=O)c1ccc(F)cc1	1	-2[16.7 µM]
CC(=O)N(C)C[C@@H]1Oc2cc(C#CC3CCCC3)ccc2S(=O)(=O)N([C@H](C)CO)C[C@@H]1C	4	1[16.7 µM]
COc1ccc(NC(=O)Nc2ccc3c(c2)C(=O)N([C@@H](C)CO)C[C@H](C)[C@@H](CN(C)C(=O)Cc2ccccc2)OCCCC[C@@H](C)O3)cc1	8	-4[16.7 µM]
COc1ccccc1CNC(=O)C[C@H]1C[C@H]2c3cc(NC(=O)NC4CCCC4)ccc3O[C@H]2[C@H](CO)O1	1	6[16.7 µM]
CC(C)NC(=O)N(C)C[C@H]1Oc2cc(C#Cc3ccccn3)ccc2S(=O)(=O)N([C@@H](C)CO)C[C@H]1C	47	1[16.7 µM]
COc1ccc(NC(=O)N[C@@H]2CC[C@H](CC(=O)NCc3ccccn3)O[C@H]2CO)cc1	-11	8[16.7 µM]
COCC(=O)Nc1ccc2c(c1)[C@@H]1C[C@H](CC(=O)NCc3ccc(Cl)cc3)O[C@@H](CO)[C@@H]1O2	0	5[16.7 µM]

# Copied from the listing for reference:
compound	Yeast UUG start	HIV Env fusion
O=C(C[C@H]1CC[C@H](NC(=O)C2CC2)[C@@H](CO)O1)NCc1ccccc1Cl	-2	-10[16.7 µM]
CO[C@H]1CN(C)C(=O)c2cc(NS(=O)(=O)c3ccccc3)ccc2OC[C@H](C)N(C)C[C@H]1C	1	-29[16.7 µM]
C[C@@H]1CN([C@@H](C)CO)C(=O)c2cc(NC(=O)C3CC3)ccc2O[C@H]1CN(C)C(=O)Nc1cccc2ccccc12	2	49[16.7 µM]
C[C@@H]1CCCCO[C@H](CN(C)C(=O)Nc2ccc(F)cc2)[C@H](C)CN([C@@H](C)CO)C(=O)c2cc(NS(=O)(=O)c3cn(C)cn3)ccc2O1	-1	4[16.7 µM]
C[C@@H]1CN([C@@H](C)CO)C(=O)c2cc(-c3ccc(C(=O)N(C)C)cc3)cnc2O[C@@H]1CN(C)Cc1ccc(C(=O)O)cc1	-5	-11[16.7 µM]
O=C(N[C@@H]1CC[C@@H](CCNS(=O)(=O)c2ccccc2)O[C@@H]1CO)c1cccc(F)c1	-6	-12[16.7 µM]
C[C@H](CO)N1C[C@H](C)[C@@H](CN(C)CC2CC2)Oc2ccc(NC(=O)NC3CCCCC3)cc2CC1=O	2	-18[16.7 µM]
C[C@@H]1CN([C@H](C)CO)C(=O)c2cccc(N(C)C)c2O[C@H]1CN(C)Cc1ccc(C(=O)Nc2ccccc2N)cc1	-5	6[16.7 µM]
C[C@@H]1CN([C@H](C)CO)C(=O)c2cc(NC(=O)Nc3ccc4c(c3)OCO4)ccc2O[C@@H](C)CCCCO[C@@H]1CN(C)S(=O)(=O)c1ccc(F)cc1	1	-2[16.7 µM]
CC(=O)N(C)C[C@@H]1Oc2cc(C#CC3CCCC3)ccc2S(=O)(=O)N([C@H](C)CO)C[C@@H]1C	4	1[16.7 µM]

# Further structures:
compound	Yeast UUG start	HIV Env fusion
C[C@@H]1CN([C@H](C)CO)S(=O)(=O)c2ccc(C3=CCCC3)cc2O[C@@H]1CN(C)C	12	-7[16.7 µM]
Cc1ccc(S(=O)(=O)NCC[C@H]2CC[C@H](NC(=O)Nc3ccccc3F)[C@@H](CO)O2)cc1	16	-20[16.7 µM]
CCNC(=O)C[C@H]1CC[C@H]2[C@@H](COc3ccc(NC(=O)Nc4cccc(F)c4)cc3C(=O)N2C)O1	5	-4[16.7 µM]
CC(C)CC#Cc1ccc2c(c1)O[C@@H](CN(C)C(=O)C1CCOCC1)[C@@H](C)CN([C@H](C)CO)S2(=O)=O	6	-17[16.7 µM]
O=C(Nc1ccc(N2CCOCC2)cc1)C1CCN(S(=O)(=O)c2cccc(C(F)(F)F)c2)CC1	-7	-32
COc1ccc(S(=O)(=O)N(C)C[C@@H]2OCCCC[C@H](C)Oc3ccc(NC(=O)c4ccncc4)cc3C(=O)N([C@H](C)CO)C[C@@H]2C)cc1	11	14[16.7 µM]
